Bioassay records (PubChem BioAssay)
Mtb hypoxia rep – reduces hypoxia-regulated biosensor signal in M. tuberculosis | M. tuberculosis hypoxia-regulated fluorescent reporter, fluorescence | fluorescence inhibition, % (concentration not given with the values) | hit rate 0.1% among 300,000 | AID 1159583;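 active means 35 to 45% if threefold the growth effect, above 45% if 1.5-fold the growth effect; inactive means the rest, general growth blockers included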;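 further: wells of about 50 µL received 100 nL stock; 0% = vehicle wells and 100% = reference inhibitor wells; whole bacteria with a GFP reporter of the hypoxia response; strong numbers were not always called active; many hits fall short of the cut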
BJeLR lethal – kills HRASV12-expressing BJeLR cells; inhibition, % (concentration not given with the values); hit rate 0.17% among 300,000; BJeLR (HRASV12) viability, CellTiter-Glo ATP luminescence, 48 h; reference of the scale not given here;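 active means replicate mean above 50%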;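 further: 50 nL library stock added to about 25 µL; numbers are from one replicate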
PrP 5UTR inh – inhibition of PrP 5' UTR reporter expression. cell-based PrP 5' UTR mRNA reporter, plate reader. inhibition, % (concentration not given with the values). hit rate 0.35% among 340,000. AID 488862;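 active means every replicate at 50% or more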;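 further: 0 = median of the neutral control wells; tested in H4 reporter cells; numbers are from one replicate; inactives centre near -14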
Sa ugtP lethal – compounds lethal to S. aureus RN4220 ugtP deletion mutant; OD600 growth, 16 h; some inactives read as strong as hits; growth inhibition, % (concentration not given with the values); hit rate 0.54% among 330,000;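 active means z-score under -3 and OD600 up to 0.15 on both plates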;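 further: plate controls were untreated wells for no effect and antibiotic for full effect; wells of about 80 µL received 100 nL stock; the first replicate is given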
Sa RN4220 lethal – S. aureus RN4220 growth inhibition | hit rate 0.33% among 330,000 | OD600, 16 h | inhibition, % (test concentration not listed);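 active means z-score of -3 or lower and OD600 up to 0.18 on both plates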;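 further: plate controls were untreated cells for no effect and reference antibiotic for full effect; stock transfer was 100 nL into about 80 µL; one replicate is shown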
Bead autofluor – compound fluorescence in toxin protease inhibitor counterscreen; compound autofluorescence counterscreen, microsphere flow cytometry; active compounds read high; fluorescence intensity (no concentration beside the values); hit rate 3.1% among 360,000; AID 624483;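 active means at least 3 SD above the mean of all compounds, about 16000 in these data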;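 further: 100 nL of 1 mM stock went into each well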
Mtb hypoxia rep growth – recorded beside Mtb hypoxia rep, whose call it bears; growth inhibition, %; measured here: M. tuberculosis growth (absorbance);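 0% = vehicle and 100% = reference antibiotic; read after six days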
Active calls of the source: *; nt = not tested or not shown.

mol	Mtb hypoxia rep	Mtb hypoxia rep growth	BJeLR lethal	PrP 5UTR inh	Sa ugtP lethal	Sa RN4220 lethal	Bead autofluor
C[C@@H]1CN([C@H](C)CO)C(=O)c2cc(NC(=O)Nc3ccc(C(F)(F)F)cc3)ccc2O[C@H]1CN(C)S(=O)(=O)c1ccc(Cl)cc1	-6	0	nt	-5	-28	-1.0	3673
COc1cccc(C(=O)Nc2nc(-c3ccc4c(c3)OCO4)cs2)c1	3	-2	-6	-6	63	30	4476
C=CCOc1ccccc1NC(=O)CN1C(=O)CNC1=O	4	5	-2	-17	17	6.4	3505
COCCn1c(SCc2nc(N)nc(Nc3ccccc3C)n2)nc2ccccc2c1=O	1	3	-8	-3	-9	2.0	11208
CCOC(=O)c1c(-c2ccccc2Cl)csc1NC(=O)CSc1nc(C)cc(=O)[nH]1	-2	-2	-10	8	-4	3.1	1916
COc1cccc(OC)c1C(=O)Nc1sc2c(c1C(N)=O)CCN(Cc1ccccc1)C2	-1	14	1	-11	0	-8.4	5846
Cc1ccc(CN2CC(C(=O)Nc3ccccc3N3CCCC3)CC2=O)cc1 (configuration not stated)	8	3	1	-18	1	2.6	4144
CCn1c(O)c(C(C#N)=C2N=c3ccccc3=N2)c2ccccc21	20	26	0	-17	-7	4.0	10888
COc1ccc(S(=O)(=O)N2CCN(C(=O)[C@@H]3CCCN3C(=O)c3cccs3)CC2)cc1	-3	-4	nt	-12	6	5.9	nt
Cc1ccc(C(=O)NC(C)c2ccccc2)cc1S(=O)(=O)N1CCOCC1 (configuration not stated)	nt	nt	7	-22	nt	nt	4981
COc1ccc(-n2nnnc2SCC(=O)Nc2ccccc2N2CCOCC2)cc1	2	12	0	-20	-3	6.0	2090
O=C1CCCC(O)=C1C=NCCc1ccccc1	6	1	5	-18	2	-13	2237
CCN1/C(=C2/SC(=S)N(C)C2=O)C=Cc2cc(C)ccc21	16	2	-4	-3	-5	1.4	3285
O[Si](CCCN1CCCCC1)(c1ccc(F)cc1)C1CCCCC1 (configuration not stated)	4	5	nt	-24	-9	4.9	6668
CC1CN(C2=Nc3cccc4cccc2c34)CC(C)O1 (configuration not stated)	-12	-5	6	-6	2	2.1	3658
Cc1ccc(S(=O)(=O)CCC(=O)Nc2ccc(F)cc2)cc1	1	-2	6	3	-4	4.7	4215
CCOc1ccc(NC(=O)c2nnn(CC(=O)Nc3ccccc3OC)c2N)cc1	nt	nt	-4	-21	-2	1.8	4588
Cc1ccn2cc(-c3cccc(S(=O)(=O)N4CCCCC4)c3)nc2c1	4	-3	4	-17	5	3.6	5924
O=C(Nc1ccc[n+](CC(=O)c2cccc3ccccc23)c1)c1ccccc1	-5	-6	6	-15	-20	-7.6	2069
COc1cnc(-c2ccccn2)nc1Oc1ccc(Cl)cc1	6	19	-9	-5	1	-1.2	16340*
CC1CN(Cc2cnc(Cl)s2)CC(C)O1 (configuration not stated)	9	3	nt	-5	-2	0.0	4403
CCCn1nnc(NC(=O)Cc2ccccc2)n1	0	5	-4	-18	5	2.7	2884
COC(=O)Nc1ccc(N=C(N)N[N+](=O)[O-])cc1	10	19	-12	-11	12	5.8	4265
Cc1ccnc(NC(=O)CNC(=O)c2ccccc2Br)c1	11	5	8	-37	11	0.0	4639
COc1cc(-c2nnc(SCC#CCO)o2)cc(OC)c1OC	nt	nt	-8	-4	3	8.2	22486*
CN(C(=O)c1cccc(NC(=O)Cc2ccc([N+](=O)[O-])cc2)c1)C1CCCCC1	5	9	nt	-5	1	3.3	3183
O=C(N/N=C1\CC2CC=CC12)c1ccc(COc2ccccc2)cc1 (configuration not stated)	nt	nt	-10	-26	nt	nt	2096
Cc1ccccc1N(CC(=O)N1CCCC1)S(=O)(=O)c1ccc(Cl)cc1	4	11	8	-17	5	4.8	6060
C1CCC(C23CC4CC(CC(C4)C2)C3)NC1 (configuration not stated)	13	13	1	-13	5	2.0	4025
COc1ccc(C(=O)NCCCNC(=O)c2cnccn2)cc1Br	20	9	7	-20	4	-0.3	3812
Cc1ccc(C(=O)NC2CCCCNC2=O)cc1C (configuration not stated)	3	12	5	-37	4	2.7	4131
Cc1cc(=O)n2c(c1C#N)SC1CCCCC12O (configuration not stated)	9	3	-1	-33	12	3.9	10636
O=C(O)c1cccc(COc2cccc3ccccc23)c1	19	10	-1	-27	-23	7.7	3735
CCOC(=O)c1c(C)cccc1OCC(N)=O	nt	nt	nt	-13	-1	7.3	2468
Cc1cc(C)n(CCC(=O)N/N=C/c2cccc([N+](=O)[O-])c2)n1	nt	nt	-2	-4	nt	nt	5651
COc1ccccc1-c1cc(C(=O)NCCCN2CCOCC2)no1	2	3	-15	-25	6	1.3	3641
O=C(C1CCCO1)N1CCN(C(=S)NC2CC2)CC1 (configuration not stated)	6	0	-2	-1	3	4.9	4102
CN(C)CCNC(=O)c1scc2c1CCCC2	-5	11	-11	-35	-3	-1.8	5161
CCCCn1nc(NS(=O)(=O)c2cccc3nonc23)c2cc3cccc(C)c3nc21	7	2	-2	-22	-11	20	5721
COc1ccc(-c2noc(Cc3ccccc3OC)n2)cc1	nt	nt	-3	-35	20	0.9	3200
Cc1ccc(C(C(=O)NC2CCCCC2)N(C(=O)c2csnn2)C2CC2)o1 (configuration not stated)	2	6	-6	-6	-1	5.2	10555
Cc1cc(C)cc(C(=O)NCCCN2CCOCC2)c1	14	5	-5	-26	4	1.3	4065
Cc1ccc(C)c(Nc2nc3c(S(=O)(=O)c4ccccc4)nnn3c3ccccc23)c1	2	4	-2	-11	3	7.6	2021
Cc1cccc(NC(=O)c2cc3ccccc3oc2=O)c1	10	4	8	-28	-1	2.0	3765
CN(C)NC(=S)NC1CCS(=O)(=O)C1 (configuration not stated)	2	16	-6	2	2	3.5	3281
N#C/C(=C/N1CCOCC1)c1ccccc1	nt	nt	-5	-12	8	8.8	2074
COCCn1nnnc1C(c1ccc2ncccc2c1)N1CCN(c2ccccc2F)CC1 (configuration not stated)	-1	-1	0	-23	1	6.9	6285
CCCSc1nc(C)cc(C)c1S(C)(=O)=O	5	2	4	-21	0	2.6	4745
C[C@@H]1C(c2ccc(F)cc2)=NN(c2ccccc2)[C@H]1C(=O)N1CCOC1=O	2	4	nt	6	17	-0.4	3056
CCCn1c(SCC(=O)Nc2ccccc2C(=O)OC)nc2c1c(=O)n(C)c(=O)n2C	9	3	10	-12	-5	2.3	20496*

(listing goes on)
mol	Mtb hypoxia rep	Mtb hypoxia rep growth	BJeLR lethal	PrP 5UTR inh	Sa ugtP lethal	Sa RN4220 lethal	Bead autofluor
Cn1c(CNc2nc(-c3ccccc3)cs2)nnc1SCC(=O)N1CCc2ccccc21	nt	nt	-3	-13	12	-7.7	3653
Cc1ccc(-c2nnn(CC(=O)N(Cc3ccco3)C(C(=O)NC(C)(C)C)c3cccs3)n2)o1 (configuration not stated)	3	8	2	-19	-5	-1.5	22756*
CCOc1ccc(-n2c(SCC(=O)Nc3ccc(OC)cc3OC)nc3c(c2=O)SCC3)cc1	nt	nt	nt	4	-6	-1.5	4624
COc1cc(/C=N/N=C(\N)c2nonc2N)ccc1O	nt	nt	6	-31	nt	nt	4994
[N-]=[N+]=CC(=O)OCC(N)C(=O)O (configuration not stated)	0	-1	nt	nt	2	4.1	nt
COc1ccc(S(=O)(=O)N2N=C(C)Oc3ccccc3C2=O)cc1	19	9	28	-24	2	2.2	3851
O=C(c1ccccc1)N1CCn2c(nc3ccccc32)C1	7	8	3	-5	2	3.9	19484*
O=C(NCC1COc2ccccc2O1)c1ccc(Br)s1 (configuration not stated)	nt	nt	2	-23	nt	nt	3930
O=C(COC(=O)c1cccs1)Nc1cccc(Cl)c1	7	5	nt	-3	7	1.3	4328
Cc1ccc(-c2nc(CS(=O)CC(=O)NCc3ccco3)c(C)o2)cc1 (configuration not stated)	0	-4	2	1	2	0.2	4694
Cc1cc(/C=N\NC(=O)CC(=O)NC2CCCCC2)c(C)n1-c1cccc(Cl)c1Cl	nt	nt	-17	-21	nt	nt	1967
CCOc1ccc(N(C)S(=O)(=O)c2ccc(-c3cc(C)no3)s2)cc1	-2	-6	9	-56	-6	10	5982
CC1=CCC2C(=O)N(c3ccccc3OC(=O)c3ccccc3F)C(=O)C2C1 (configuration not stated)	-5	-8	-5	-17	-3	4.0	2139
NC(=O)C1CC(=O)N(c2ccc(OCc3ccccc3Cl)cc2)C1 (configuration not stated)	9	7	-3	-35	-2	0.0	2559
CCCCCC(=O)OC(CN1CCCCC1)CN1CCCC1=O (configuration not stated)	nt	nt	8	-16	9	-1.0	2914
Cc1ccc(S(=O)(=O)NCC(=O)NCC(=O)OC(C(=O)NC(N)=O)C(C)C)cc1C (configuration not stated)	-1	6	7	-17	8	3.5	4179
CN(C)Cc1c(O)ccc2oc(Cc3ccccc3)cc12	10	4	8	10	6	0.3	4587
O=C(COc1ccccc1-c1ccccc1)Nc1ccc(S(=O)(=O)NCc2ccco2)cc1	18	0	0	-35	-5	4.2	8928
CCOC(=O)Nc1cc(C)c(Cl)cc1OC	12	10	-4	-13	5	6.2	2856
COc1ccc(/C=C/C(=O)OCC(=O)NC2CCCCC2C)c(OC)c1 (configuration not stated)	22	7	nt	-16	87*	4.6	4052
CSc1ccc(CN(C)CC(=O)NC(C)c2ccccc2)cc1 (configuration not stated)	6	7	-7	-20	4	2.4	3711
COc1ccc(CCN(C)C(=O)c2ccc(C)c(S(=O)(=O)N3CCCCC3)c2)cc1OC	0	9	nt	-10	-3	4.6	3805
CCOCCCn1c(=NC(=O)c2cccs2)c(C#N)cc2c(=O)n3ccccc3nc21	14	5	5	-18	5	1.5	nt
COc1cc(/C=C/C(=O)OCC(=O)Nc2cc(C)on2)ccc1OCC#N	-3	0	nt	-8	0	1.5	nt
Cc1csc(NC(=O)C2CCCCN2S(=O)(=O)c2ccccc2)n1 (configuration not stated)	-2	17	15	13	3	2.3	3298

Molecules from the list above with a furan ring, fused or not (5):
mol	Mtb hypoxia rep	Mtb hypoxia rep growth	BJeLR lethal	PrP 5UTR inh	Sa ugtP lethal	Sa RN4220 lethal	Bead autofluor
Cc1ccc(C(C(=O)NC2CCCCC2)N(C(=O)c2csnn2)C2CC2)o1 (configuration not stated)	2	6	-6	-6	-1	5.2	10555
Cc1ccc(-c2nnn(CC(=O)N(Cc3ccco3)C(C(=O)NC(C)(C)C)c3cccs3)n2)o1 (configuration not stated)	3	8	2	-19	-5	-1.5	22756*
Cc1ccc(-c2nc(CS(=O)CC(=O)NCc3ccco3)c(C)o2)cc1 (configuration not stated)	0	-4	2	1	2	0.2	4694
CN(C)Cc1c(O)ccc2oc(Cc3ccccc3)cc12	10	4	8	10	6	0.3	4587
O=C(COc1ccccc1-c1ccccc1)Nc1ccc(S(=O)(=O)NCc2ccco2)cc1	18	0	0	-35	-5	4.2	8928

Next structures follow:
mol	Mtb hypoxia rep	Mtb hypoxia rep growth	BJeLR lethal	PrP 5UTR inh	Sa ugtP lethal	Sa RN4220 lethal	Bead autofluor
COc1ccc(S(=O)(=O)/C(C#N)=C/Nc2ccccc2F)cc1	14	8	3	-5	-16	2.5	4338
COc1ccc(CNC(=O)c2ccc[nH]2)cc1Cl	11	4	-1	-4	0	2.2	4149
COC(=O)c1ccccc1S(=O)(=O)N1CCC(C(=O)OC(C)C(=O)Nc2ccc(NC(C)=O)cc2)CC1 (configuration not stated)	6	-1	-2	-6	4	2.2	6091
CCN(CC)C(=O)c1sc2nc(-c3ccccn3)[nH]c(=O)c2c1C	-19	-3	-5	nt	-6	-0.6	3580
CCOC(=O)NNC(=S)Nc1c(C)n(C)n(-c2ccccc2)c1=O	14	3	1	-2	5	2.5	5612
O=C(CSc1nc(COc2ccccc2)nc2ccccc12)NC1CCCC1	5	6	6	-7	-7	1.7	3502
NC(=O)c1ccc(-c2csnn2)cc1	12	3	0	-1	4	3.1	4567
CCNC(=S)NN=Cc1ccc(C#N)cc1	3	0	nt	nt	2	3.1	nt
COc1cccc(NC2=Nc3cccc4cccc2c34)c1	-3	14	-6	-17	-15	-0.5	2142
CN(C1CCCCC1)S(=O)(=O)c1ccc(C(=O)Nc2sc3c(c2C(N)=O)CC(C)(C)NC3(C)C)cc1	-2	-6	10	-24	12	6.8	6478
